D2 potentiator: positive allosteric modulators of human D2 dopamine receptor. DiscoveRx D2 beta-arrestin cells, luminescence, 90 min; 100% = 57 uM dopamine signal. potentiation, % (concentration not given with the values). actives 0.23% (n = 360,000). AID 624464; active = potentiation of 50% or more; inconclusive = 30% to 50%; inactive = 30% or less;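 also: compound concentration not given in the record; tested on top of an EC20 dose of dopamine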
Target sequence (P14416 whole entry, looked up): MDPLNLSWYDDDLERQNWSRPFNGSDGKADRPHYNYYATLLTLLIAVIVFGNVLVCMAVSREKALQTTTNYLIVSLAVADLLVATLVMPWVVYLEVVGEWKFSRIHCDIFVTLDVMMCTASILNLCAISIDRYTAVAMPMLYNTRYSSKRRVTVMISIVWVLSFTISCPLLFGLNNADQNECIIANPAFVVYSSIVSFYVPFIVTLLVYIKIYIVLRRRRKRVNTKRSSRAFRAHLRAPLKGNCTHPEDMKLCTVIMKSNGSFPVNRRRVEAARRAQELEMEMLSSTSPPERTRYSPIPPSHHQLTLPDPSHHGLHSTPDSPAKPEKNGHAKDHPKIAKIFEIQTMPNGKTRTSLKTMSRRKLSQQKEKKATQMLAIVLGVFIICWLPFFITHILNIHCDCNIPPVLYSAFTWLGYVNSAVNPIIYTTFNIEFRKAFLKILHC
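PathHunter beta-arrestin assay in DiscoveRx D2 cells. Compounds were added with an EC20 of dopamine (50 nM final) for 90 min at 37 deg C. Luminescence was read 1 h after detection reagent, with 57 uM dopamine as the EC100 control.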
gsp antag: antagonizes gsp, the McCune-Albright syndrome mutation. gsp-mutant cells, cAMP HTRF, 30 min; control for the full effect not named in the record. Potency, µM (titrated, usually from 76.9 µM), for the others: at the top dose activity change, negative = inhibition, hits mostly inhibitors. actives 0.4% (n = 340,000); active = falling curve of any shape with a large fitted effect; inconclusive = falling curve, mostly with a smaller effect; inactive = flat or rising curve; cell line not stated here;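 also: intracellular cAMP measured with PDE inhibitor Ro 20-1724 present during compound exposure; potency is read from the fitted curve at half-maximal effect; % is scaled to controls: 0 for no effect and ±100 for the full control effect; nearly all actives have a fitted effect of over 65% in size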
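HTRF cAMP read-out (cAMP-d2 plus anti-cAMP antibody-K in lysis buffer, 30 min RT). Before lysis, cells are exposed to compounds with […] for 30 min at 37C in DPBS containing Ca/Mg, BSA and Tween 20.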
Menin MLL FP FL: displaces fluorescein MLL peptide from human menin. FP activity change, % at 61.4 µM. Fluorescence polarization, fluorescein-MLL peptide displacement from menin. AID 1766. 290,000 tested, under 10 active; inconclusive = falling polarisation curve, or a change in total fluorescence; inactive = total fluorescence flat and polarisation flat or rising; no compound was filed as active; the % refers to the polarisation; negative = inhibition;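 also: % of control where 0% means no effect; inhibitors lower the polarisation; unlabelled MLL peptide was the positive control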
gsp agonist: agonists of gsp mutant (McCune-Albright syndrome); gsp mutant cells, cAMP HTRF, 30 min; control for the full effect not named in the record; actives 0.13% (n = 340,000); Potency, µM (titrated, usually from 76.9 µM), for the others: top-dose activation (cAMP increase), hits mostly activators; AID 624287; active = well fitted activation curve with a large enough effect; inconclusive = small, poorly fitted or top-dose-only effect, or another doubt; inactive = no such curve, though single readings can be large or run the other way; cell line not stated here;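 also: phosphodiesterase inhibitor Ro 20-1724 added with compounds to block cAMP breakdown; potency is read from the fitted curve at half-maximal effect; nearly all actives have a fitted effect of over 60% in size; about a fifth of the inactives were tested at one dose only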
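Cells stably selected in G418 were plated at 2000/well, grown 16-24 hr, then given compounds in DMSO with the PDE inhibitor […] (300 uM solution added) for 30 min at 37C; cAMP was read by HTRF.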
ClpP mod: qHTS Assay for Activators of ClpP; ATP-dependent Clp protease proteolytic subunit (Bacillus subtilis (strain 168)), P80244; purified B. subtilis ClpP, FRET peptide cleavage, 20 min; Potency, µM (top dose mostly 57.5 µM), for the others: at the top dose activity change, negative = active; actives 1.9% (n = 340,000); active = well fitted falling curve with a large enough effect; inconclusive = small, poorly fitted or top-dose-only effect; inactive = no such curve, though single readings can be large or run the other way; also: potency is read from the fitted curve at half-maximal effect; the source files actives as falling curves though it sought activators and does not explain the sign; nearly all actives have a fitted effect of over 65% in size; many hits overshoot -100%
Target sequence (P80244 whole entry, looked up): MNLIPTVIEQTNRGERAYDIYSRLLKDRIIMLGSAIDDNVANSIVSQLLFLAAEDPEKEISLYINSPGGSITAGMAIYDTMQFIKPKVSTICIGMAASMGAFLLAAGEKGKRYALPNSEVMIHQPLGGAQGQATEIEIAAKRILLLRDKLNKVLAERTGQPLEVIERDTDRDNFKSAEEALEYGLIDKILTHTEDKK
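ClpP 10 microg/mL final, pH 8 Tris/KCl buffer with BSA, glycerol, Tween-20; compound pinned in; FRET-FV substrate; RT 20 min; Ex320/Em430; ΔFRET vs ADEP 5.8 microM, DMSO, no enzyme.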
TRPV1 potentiator: enhances activation of the human vanilloid receptor TRPV1; Q8NER1; TRPV1-expressing cells, Fluo-8 calcium influx, capsaicin EC20 potentiation; host cell line not named in the record; control for the full effect not named in the record; potentiation, % at 8.33 µM; actives 0.02% (n = 320,000); AID 540277; active means potentiation above 80%; inconclusive means 30% to 80%; inactive means below 30%; also: 0% is about no effect
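Cells expressing TRPV1 were dye-loaded with Fluo-8 and read kinetically: 10 s baseline, 3 min after compound (agonist portion), then 2 min after EC20 capsaicin (allosteric enhancer portion). Calcium-bound dye fluorescence at 480/520 nm.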
Sfp PPTase inh: Sfp phosphopantetheinyl transferase inhibition; Q9F4F7; Biochemical Sfp PPTase activity, qHTS; Potency, µM, without a hit: max response, negative = inhibition, actives largely listed as inhibitors; actives 3.5% (n = 310,000); AID 1490; active = well fitted inhibition curve with a large enough effect; inconclusive = small, poorly fitted or top-dose-only effect, or another doubt; inactive = no such curve, though single readings can be large or run the other way;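 also: the enzyme is Sfp with the accession as filed and its product quenches rhodamine fluorescence; potency is read from the fitted curve at half-maximal effect; 0% = enzyme reaction without inhibitor and -100% = no enzyme wells; top concentration of the series not given in the record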
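Compounds were incubated with enzyme (final 15 nM) for 15 min at room temperature before substrate addition started the reaction. Fluorescence at 525 nm excitation, 598 nm emission was recorded immediately and after 30 minutes.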
* hit, by the source's call; [ ] = dose if it differs, or a comment.

Screening O=C(NCCN1CCOCC1)c1ccc(Cl)c(S(=O)(=O)NCc2ccccc2)c1 returned D2 potentiator -17, gsp antag 6%, gsp agonist -6% and ClpP mod -3.5%.
`Cc1c(Br)cc(C(=O)NCCCN2CCOCC2)c(C)c1C` gave D2 potentiator 0, gsp antag 7%, Menin MLL FP FL 0.8, gsp agonist -17%, ClpP mod 16µM*, TRPV1 potentiator -6 and Sfp PPTase inh 10%.
Screening COc1cc(C2C3=C(COC3=O)Oc3cc4c(cc32)OCO4)ccc1O (stereo not given) returned D2 potentiator -13, gsp antag 3%, gsp agonist 5% and ClpP mod -6.1%.
`O=C(O)/C=C/C(=O)NC1CCS(=O)(=O)C1` (stereo not given) gave D2 potentiator -4, gsp antag 9%, Menin MLL FP FL -2.1, gsp agonist -7%[15.4 µM], ClpP mod 2.0%, TRPV1 potentiator 8 and Sfp PPTase inh -4%.
For CCOC(=O)NN1C(=O)c2ccccc2NC1c1cccnc1 (stereo not given) the results were D2 potentiator -7, gsp antag 12%, Menin MLL FP FL -1.0, gsp agonist 1%, ClpP mod 4.6%, TRPV1 potentiator 0 and Sfp PPTase inh 19%.
Screening CCn1cc(S(=O)(=O)Nc2cccnc2)cn1 returned D2 potentiator 10, gsp antag 15%, Menin MLL FP FL -5.5, gsp agonist inconclusive, ClpP mod -0.7%, TRPV1 potentiator 7 and Sfp PPTase inh 2%.
`O=C(O)c1cccc(NC(=O)c2ccccc2NC(=O)c2cccc([N+](=O)[O-])c2)c1` gave D2 potentiator -17, gsp antag 5%, Menin MLL FP FL -0.5, gsp agonist -18%, ClpP mod -0.6%, TRPV1 potentiator 4 and Sfp PPTase inh 4%.
Screening CSc1cccc(NC(=S)Nc2cc(C)ccc2C)c1 returned D2 potentiator -4, gsp antag 0%, Menin MLL FP FL 0.5, gsp agonist 24% and Sfp PPTase inh 0%.
For COc1ccc(/C=C/C(=O)O)cc1S(=O)(=O)N1CCc2ccccc2C1 the results were D2 potentiator -2, gsp antag -14%, Menin MLL FP FL -0.4, gsp agonist -24%, TRPV1 potentiator 10 and Sfp PPTase inh -7%.
Screening O=C(CSc1nccn1-c1ccc(F)cc1)NCc1ccc(F)cc1 returned D2 potentiator -22, gsp antag -3%, Menin MLL FP FL -4.4, gsp agonist -3%[15.4 µM], ClpP mod 4.3%, TRPV1 potentiator -17 and Sfp PPTase inh 10%.
For CCCCn1c(C(C)NC(=O)CCC)nc2ccccc21 (stereo not given) the results were D2 potentiator -3, gsp antag 5%, Menin MLL FP FL 1.9, gsp agonist -15%, ClpP mod -1.7%, TRPV1 potentiator -13 and Sfp PPTase inh 14%.
For CCCCC(O)(c1ccccc1)C(CN1CCOCC1)c1ccccc1 (stereo not given) the results were D2 potentiator -3, gsp antag 14%, Menin MLL FP FL -0.4, gsp agonist 15%, ClpP mod -0.5%, TRPV1 potentiator -11 and Sfp PPTase inh -2%.
Screening Cc1noc(C)c1C(=O)OC(C)C(=O)Nc1ccc(C(N)=O)cc1 (stereo not given) returned D2 potentiator 0, gsp antag 11%, gsp agonist inconclusive, ClpP mod -1.0% and TRPV1 potentiator 1.
COC(=O)C(C(=O)Nc1cccc(C)n1)C1CCCCCC1 (stereo not given) was read as D2 potentiator 4, gsp antag -18%, Menin MLL FP FL 5.5, gsp agonist -1%, ClpP mod -1.1%, TRPV1 potentiator -1 and Sfp PPTase inh 2%.
CSCC[C@H](NC(=O)c1cccc([N+](=O)[O-])c1C)c1nc2ccccc2[nH]1 was read as D2 potentiator -42, gsp antag 0%, Menin MLL FP FL 1.8, gsp agonist -52%[inhibitor], ClpP mod 0.4%, TRPV1 potentiator 0 and Sfp PPTase inh -20%.

Random excerpt: two entries already listed
Screening CSc1cccc(NC(=S)Nc2cc(C)ccc2C)c1 returned D2 potentiator -4, gsp antag 0%, Menin MLL FP FL 0.5, gsp agonist 24% and Sfp PPTase inh 0%.
Screening Cc1noc(C)c1C(=O)OC(C)C(=O)Nc1ccc(C(N)=O)cc1 (stereo not given) returned D2 potentiator 0, gsp antag 11%, gsp agonist inconclusive, ClpP mod -1.0% and TRPV1 potentiator 1.

More entries.
`COc1cc(C(=O)Nc2cccc(-c3cn4cccnc4n3)c2)cc(OC)c1OC` gave D2 potentiator 17, gsp antag 9%, Menin MLL FP FL -2.2, gsp agonist inconclusive, TRPV1 potentiator 23 and Sfp PPTase inh 2%.
For COc1ccc(CN2CCCC(C(=O)c3cccc(OC(C)C)c3)C2)cc1Cn1cccn1 (stereo not given) the results were D2 potentiator -23, gsp antag -7%, Menin MLL FP FL -0.8, gsp agonist -2%, ClpP mod -7.1%, TRPV1 potentiator 8 and Sfp PPTase inh -2%.
For CN1C(=O)/C(=C2\SC(=S)N(CCCCCC(=O)O)C2=O)c2ccccc21 the results were D2 potentiator 13, gsp antag 3%, Menin MLL FP FL -0.5, gsp agonist -4%, ClpP mod 1.2%, TRPV1 potentiator 14 and Sfp PPTase inh 18%.
`CCCNC(=O)COc1ccc2c(=O)c(Oc3ccccc3F)coc2c1` gave D2 potentiator -4, gsp antag -12%, Menin MLL FP FL 4.2, gsp agonist 4%, ClpP mod -0.4%, TRPV1 potentiator -13 and Sfp PPTase inh inconclusive.
`Cc1ccc(S(=O)(=O)c2cc3c(=O)n4ccccc4nc3n(CC3CCCO3)c2=N)cc1C` (stereo not given) gave D2 potentiator -14, gsp antag -6%, Menin MLL FP FL 2.1, gsp agonist -8%, ClpP mod -26%, TRPV1 potentiator -10 and Sfp PPTase inh -8%.
Cc1cccc(NC(=O)CCNC(=O)c2ccc(Br)cc2)c1 was read as D2 potentiator -13, gsp antag -1%, Menin MLL FP FL 1.6, gsp agonist 19%, TRPV1 potentiator 25 and Sfp PPTase inh 20%.
For CCC(CC)C(=O)Nc1cccc(C(=O)N2CCCCCC2)c1 the results were D2 potentiator -10, gsp antag 6%, Menin MLL FP FL 5.4, gsp agonist 2%, ClpP mod -0.3%, TRPV1 potentiator 4 and Sfp PPTase inh -4%.
Screening O=C(O)C1C2CCC(O2)C1C(=O)NCc1ccc(Cl)cc1 (stereo not given) returned D2 potentiator -4, gsp antag inconclusive, Menin MLL FP FL -0.7, gsp agonist -4%, ClpP mod -2.1%, TRPV1 potentiator -3 and Sfp PPTase inh 6%.
CCOC(=O)Cn1c(=O)c(-c2ccccc2NC)nc2ccccc21 was read as D2 potentiator -22, gsp antag -3%, Menin MLL FP FL 0.2, gsp agonist -1%, ClpP mod -3.1%, TRPV1 potentiator -14 and Sfp PPTase inh 5%.
`CSCCC(NC(=O)C1CCC(C)CC1)C(=O)N1CCN(c2ccccn2)CC1` (stereo not given) gave D2 potentiator -18, gsp antag 0%, Menin MLL FP FL -0.7, gsp agonist -27%, ClpP mod inconclusive, TRPV1 potentiator 15 and Sfp PPTase inh -17%.
For Cn1c(=O)cc(N)n(-c2ccccc2)c1=O the results were D2 potentiator -5, gsp antag 9%, Menin MLL FP FL 0.6, gsp agonist -1%[15.4 µM], ClpP mod -0.2%, TRPV1 potentiator -1 and Sfp PPTase inh 5%.
Screening COc1cccc(OC)c1C(=O)NCCc1ccccc1 returned D2 potentiator -4, gsp antag 2%, gsp agonist -26% and ClpP mod 0.1%.
N#CCC(=O)N/N=C/c1ccc(Cl)cc1 was read as D2 potentiator 1, gsp antag 6%, Menin MLL FP FL 0.7, gsp agonist -6%[15.4 µM], TRPV1 potentiator -3 and Sfp PPTase inh -26%.
For CC1CCCN(C(=O)CCCC(=O)N2CCCC(C)C2)C1 (stereo not given) the results were D2 potentiator 5, gsp antag 8%, gsp agonist 13%, ClpP mod 2.0%, TRPV1 potentiator 4 and Sfp PPTase inh 10%.
For COc1cnc(-c2ccccc2)nc1Oc1ccc(C(C)(C)C)cc1 the results were D2 potentiator -9, gsp antag -11%, Menin MLL FP FL 3.1, gsp agonist -13%, ClpP mod -1.0%, TRPV1 potentiator -2 and Sfp PPTase inh 1%.
`COc1ccccc1CNC(=O)c1cnc2ccccn2c1=O` gave D2 potentiator -5, gsp antag 11%, Menin MLL FP FL -0.2, gsp agonist inconclusive, ClpP mod 3.7%, TRPV1 potentiator -5 and Sfp PPTase inh 13%.
O=C(c1cccc(Cl)c1)N1CCC(C(=O)N2CCN(Cc3ccccc3)CC2)CC1 was read as D2 potentiator 1, gsp antag 4%, Menin MLL FP FL 1.5, gsp agonist inconclusive, ClpP mod 28µM*, TRPV1 potentiator -12 and Sfp PPTase inh 17%.
Screening CCCCCCC(=O)Nc1nc(C)c(-c2csc(Nc3cccc(OC)c3)n2)s1 returned D2 potentiator -12, gsp antag 2%, Menin MLL FP FL -0.3, ClpP mod -10%, TRPV1 potentiator -2 and Sfp PPTase inh -8%.
Screening Cc1ccc(NC(=O)c2cnn(-c3ccccc3)c2C)cc1 returned D2 potentiator -11, gsp antag 1%, Menin MLL FP FL -0.5, gsp agonist 20%, ClpP mod -1.2%, TRPV1 potentiator -9 and Sfp PPTase inh 12%.
Screening Cc1csc(N(C(=O)c2cccc(S(=O)(=O)N(C)C)c2)c2ccccc2)n1 returned D2 potentiator -2, gsp antag -33%, Menin MLL FP FL 1.3, gsp agonist 6%, ClpP mod -1.1%, TRPV1 potentiator -1 and Sfp PPTase inh -7%.
For CCOC(=O)c1cc(C(C)(C)C)n(CCCN2CCOCC2)c1C the results were D2 potentiator -29, gsp antag -1%, Menin MLL FP FL 0.5, gsp agonist 17%, ClpP mod 0.9%, TRPV1 potentiator -10 and Sfp PPTase inh 0%.
`COc1ccc(C(=O)NC2CCCc3c2cnn3-c2cc(F)cc(F)c2)c(OC)n1` (stereo not given) gave D2 potentiator -7, gsp antag 1%, Menin MLL FP FL -1.2, gsp agonist inconclusive, ClpP mod 0.5%, TRPV1 potentiator -4 and Sfp PPTase inh -15%.
Cc1ccc(C(=O)Nc2ccc(S(=O)(=O)NC3=NCCCCC3)cc2)c(C)c1 was read as D2 potentiator -18, gsp antag 1%, gsp agonist 15%[15.4 µM], ClpP mod 0.5% and TRPV1 potentiator 8.
Screening Cc1ccc(N2C(=O)c3ccccc3NC2(C(=O)O)c2ccccc2)cc1Cl (stereo not given) returned D2 potentiator -4, gsp antag -11%, Menin MLL FP FL 5.2, gsp agonist -21%, ClpP mod -1.8%, TRPV1 potentiator 1 and Sfp PPTase inh 24%.

Bioassay records (PubChem)
